H5N1 antiviral – MDCK cell protection from H5N1 avian flu | cytopathic effect, luminescence, 72 h; active compounds read high; no value below 0 was filed and about half of the inactive calls have no number; reference of the scale not given here | inhibition, % at 50 µM | actives 0.07% (n = 96,000) | AID 740; in the data active = inhibition above about 25%
* = called active by the depositor; i = inactive. This is a subset; count on the stated rates, not on these rows.

SMILES	H5N1 antiviral
COc1ccccc1-c1nc2n(n1)C(c1ccccc1Cl)C(C(N)=O)=C(C)N2 (stereo not drawn)	2.8
C#CCn1c(S(=O)(=O)Cc2ccc(F)cc2)nc(-c2ccccc2)c1-c1ccccc1	5.3
CC1(C)CC(=O)C2=C(C1)N(c1ccccc1)C(N)=C(C#N)C2c1cccnc1 (stereo not drawn)	1.2
CCCOc1c(OC)cccc1C1CC(=O)Nc2cc(OC)c(OC)c(OC)c21 (stereo not drawn)	i
Cc1ccc(C2=NN3C(C2)c2ccccc2OC32C(=O)Nc3ccccc32)cc1 (stereo not drawn)	0.9
O=C1CCCCCC1C1(O)C(=O)Nc2ccccc21 (stereo not drawn)	i
O=C1c2ccccc2C(=O)N1Cc1nc(-c2ccncc2)no1	1.7
CC(C)CCNC(=O)NC(=O)COC(=O)/C=C/c1cnc2ccccc2n1	i
C=CCn1c(SCC(=O)Nc2cccc3ccccc23)nc(O)c(CC)c1=O	0.8
CCCCCCCC(=O)N/N=C(/C)c1c(O)cc(C)oc1=O	0.3
O=C(NCc1cccnc1)C1CCN(S(=O)(=O)N2CCC3(CC2)OCCO3)CC1	0.2
COc1ccc(Nc2ccc3nnc(-c4ccc(Br)cc4)n3n2)cc1	i
CCCCCCOc1ccc(-c2ccc(C#N)cn2)cc1	i
OC(CC1CC12c1ccccc1-c1ncccc12)(c1ccccc1)c1ccccc1 (stereo not drawn)	i
CCNc1nc(Cl)nc(N(NC(C)=O)C(C)CC)n1 (stereo not drawn)	i
O=C(NCCC1=CCCCC1)c1coc(=O)c(Br)c1	1.6
CCN(CC)C(=O)C1CCCN(c2ccc([N+](=O)[O-])cc2/C=N/NC(=O)c2cccc(O)c2)C1 (stereo not drawn)	0.6
Cc1nn(CCC(=O)O)c(C)c1C	0.3
CCN(Cc1ccccc1)C(=O)CC1Oc2ccccc2NC1=O (stereo not drawn)	2.2
COc1cccc(NC(=O)CSc2nnc(-c3cc(C)n(-c4ccccc4)c3C)o2)c1	i
Cc1ccc(S(=O)(=O)N2CCCC2C(=O)N(C)Cc2cccs2)cc1 (stereo not drawn)	i
O=C1c2cccc3cccc(c23)C(=O)N1c1cccnc1	2.1
CCn1cc(C(C)(C)C)c(C#N)c1NC(C)=O	0.2
C=CCn1c(N)c(C(=O)Nc2ccccc2OC)sc1=S	i
CCOc1cc(CNc2ncnc3nc[nH]c23)ccc1OC	1.0

Going on with the list.
SMILES	H5N1 antiviral
Cc1nc2ccccc2c2c1C(=O)N(Cc1cccnc1)C2=O	0.4
CCc1ccc(-c2cc(C(F)(F)F)n3nc(C(=O)Nc4c(C)nn(Cc5ccc(F)cc5)c4C)cc3n2)s1	0.5
COCC(C)OC(=O)c1c(N)n(CC(C)C)c2nc3ccccc3nc12 (stereo not drawn)	i
O=C1OC(c2cccs2)=N/C1=C\c1ccc(-c2ccccc2Cl)o1	i
Cc1ccc2nc(-c3ccccn3)cc(C(=O)NC3CCN(C)CC3)c2c1	0.1
CCOC(=O)CC1=C(C(=O)OCC)C2(C(=O)Nc3ccccc32)C(C#N)=C(N)O1 (stereo not drawn)	0.0
COc1ccc(CNC(=O)CN(Cc2ccc(C)cc2)S(=O)(=O)c2ccc(Cl)cc2)cc1	i
CCOC(=O)Cn1cnc2c(nnn2-c2ccc(C)cc2)c1=O	i
CCOC(=O)c1cc(-c2cccs2)nn1CCC#N	0.1
COC(=O)c1ccc(Oc2nc(C(N)=O)cc(-c3ccccc3)n2)cc1	i
Cc1nc(SCc2ccccc2)c(C(F)(F)F)c(=O)[nH]1	i
CCCCCCC(=O)Nc1nc(C)c(-c2csc(Nc3cc(Cl)ccc3OC)n2)s1	i
Nc1ncc(-c2cc3ccccc3oc2=O)s1	i
CC(=O)Nc1ccc(S(=O)(=O)Nc2nnc(C3CCCCC3)s2)cc1	0.1
CCSCCNC(=O)c1cc(-n2cnnc2)ccc1Cl	i
O=C(NCc1ccco1)c1cc(S(=O)(=O)N2CCCc3ccccc32)ccc1Cl	i
CCOc1ccc(NC(=O)C(C)Sc2nnc(C)n2C)cc1 (stereo not drawn)	1.8
CCN(CC)CCCC(C)NC1=NCCCCC1 (stereo not drawn)	0.1
CCOC(=O)C1CCCN(c2c(NCCN3CCCCC3CC)c(=O)c2=O)C1 (stereo not drawn)	1.3
Cc1ccc(C(=O)OCc2cn3ccccc3n2)cc1	i
Cc1cc(C)n(-c2ccc(C(=O)NCc3ccc4c(c3)OCO4)cc2)n1	i
CC(=O)Nc1cccc(Oc2ccc(-c3noc(C)n3)cc2)c1	i
Cc1ccc(Cn2c(SCC(N)=O)nc3c2c(=O)n(C)c(=O)n3C)cc1	1.1
O=c1c2ccccc2nc(SCc2nc3ccccc3s2)n1Cc1ccco1	i
NC(=O)C(c1ccccc1)C1CCCC1 (stereo not drawn)	0.7

Some of the entries so far, bar-delimited.
mol | H5N1 antiviral
Cc1cc(C)n(-c2ccc(C(=O)NCc3ccc4c(c3)OCO4)cc2)n1 | i
CCSCCNC(=O)c1cc(-n2cnnc2)ccc1Cl | i

Next section.
SMILES	H5N1 antiviral
CN(C)S(=O)(=O)N(CC(=O)N(Cc1ccccc1)Cc1ccccc1)c1ccccc1	0.3
C(=C\CSc1nnnn1-c1ccccc1)/CSc1nnnn1-c1ccccc1	0.1
O=C(O)c1cc(=O)c2cc(Cl)ccc2o1	i
CCOC(=O)c1cccc(NC(=O)CSc2nnc(-c3ccoc3C)n2CCOC)c1	0.6
Cc1ccc(N2C(=O)C3C4CC(=O)C(c5ccccc54)C3C2=O)cc1 (stereo not drawn)	i
COc1cccc(N2CC(C(=O)Nc3ccc(C(=O)OC(C)C)cc3)CC2=O)c1 (stereo not drawn)	1.3
COc1ccc(NC(=O)N(CCC(C)C)C(C)c2ccccn2)c(OC)c1 (stereo not drawn)	0.1
CN1CC(=O)NC1=NC(=O)c1cc(F)c(F)cc1Cl	0.3
Cc1cc(C)cc(N(C(=O)C(F)(F)F)C(C(=O)NC2CCCCC2)c2cccs2)c1 (stereo not drawn)	0.5
Cc1ccc(N(C(C)C(=O)Nc2ccc(S(=O)(=O)N3CCOCC3)cc2)S(C)(=O)=O)cc1 (stereo not drawn)	0.3
Cc1onc(-c2ccccc2Cl)c1C(=O)NCCN1CCOCC1	0.1
Cc1scc(C(=O)NCc2ccco2)c1-c1ccccc1	2.7
CCOC(=O)CNC(=O)CSc1nnc(Cn2c(=O)sc3ccccc32)n1-c1ccccc1C	i
CCc1nnc(NC(=O)C2CCCN(c3nc(C)cc(C)n3)C2)s1 (stereo not drawn)	0.2
CC1CCN(S(=O)(=O)c2ccc(NC(=O)CSc3nnnn3C)cc2)CC1	i
CS(=O)(=O)N1CCN(c2ncccn2)CC1	i
CC(=O)N(CC(=O)Nc1nn(-c2ccccc2)nc1C(N)=O)Cc1ccccc1	0.7
CC1(O)c2ccccc2C(=O)N1Cc1ccccc1 (stereo not drawn)	i
COc1ccc(/C=C2/SC(c3ccc(C)cc3)=NC2=O)cc1OC	0.2
CCOC(=O)NC(NC(=O)OCC)C(=O)c1ccc(F)cc1	i
COc1cccc(C(=O)NC2CCN(CC(=O)Nc3nccs3)CC2)c1	0.8
Cc1cc(C)c2[nH]c(=O)c(CN(Cc3ccco3)C(=O)C3CCCO3)cc2c1 (stereo not drawn)	i
Nc1nc(CSc2ccccn2)nc(Nc2ccccc2)n1	i
CCSc1sccc1C1C(C#N)=C(N)N(c2cccnc2)C2=C1C(=O)CC(C)(C)C2 (stereo not drawn)	0.7
CCN(CC)C(=O)CSc1nc(O)cc(=O)n1CC	i

Later entries:
SMILES	H5N1 antiviral
O=C(c1ccco1)N1CCN(C(=O)c2ccc(COc3ccc(F)cc3)o2)CC1	i
CCOC(=O)N1CCN(CC(O)COC2CC(C)CCC2C(C)C)CC1 (stereo not drawn)	i
c1coc(Cn2c(SCc3nc4ccccc4[nH]3)nnc2-c2cnccn2)c1	1.0
CCN1CCN(C(=O)c2c(-c3c(F)cccc3Cl)noc2C)CC1	i
O=C(O)CC(CNS(=O)(=O)c1ccccc1)c1ccccc1 (stereo not drawn)	i
O=C(c1cc(C2CC2)on1)N1CCOCC1	1.1
O=c1c2c3c(sc2n(CCN2CCCC2)c(=O)n1Cc1ccco1)CCCCC3	i
CN(C)CC(O)COc1cc2ccccc2cc1C(=O)N1CCCCC1 (stereo not drawn)	i
O=C(CSc1nncs1)N1c2ccccc2Sc2ccccc21	1.4
CCN(CC)CCOc1cccc(C(C)C)c1	0.4
O=C(COc1ccccc1Cl)N1CCN(c2ccc([N+](=O)[O-])c(N3CCOCC3)c2)CC1	i
COc1ccc(Cl)cc1NC(=O)c1ocnc1C	0.4
O=C(CN1CCOCC1)Nc1ncc(Cc2ccccc2Cl)s1	i
COc1cccc(Nc2ncccc2C(=O)O)c1	i
O=C(O)CNc1nc(-c2ccccc2)nc2ccccc12	i
Cc1oc(-c2ccccc2Cl)nc1Cn1cccc1C1=NC(c2ccccc2)CO1 (stereo not drawn)	2.9
CCCNC(=O)c1ccc(OC)cc1OC	3.3
Cn1cc(C(=O)NCN2CCCCC2)c2ccccc21	i
CCOC(=O)c1ccc(N2C(=O)CC(C3CCCO3)C2=O)cc1 (stereo not drawn)	1.9
Nc1c(S(=O)(=O)c2cccc(Cl)c2)c2nc3ccccc3nc2n1CCN1CCOCC1	0.6
Cc1ccc(N(CC(=O)NCC2CCCO2)S(C)(=O)=O)cc1Cl (stereo not drawn)	0.6
COC(=O)C1=C(N)Oc2cc(C)n(CC3CCCO3)c(=O)c2C1c1ccccc1 (stereo not drawn)	i
CCC(=O)Nc1ccccc1C(=O)N1CCN(Cc2ccccc2)CC1	i
COC(=O)c1cc2sc(Cl)cc2n1CC(=O)Nc1ccc(OC)c(OC)c1OC	i
CC1CC(C)(C)NCCNC(C)CC(C)(C)NCCN1 (stereo not drawn)	i

Going on with the list:
SMILES	H5N1 antiviral
CC(C)CC(=O)N1CCN(S(=O)(=O)c2ccccc2)CC1	0.9
Cc1nnc(NC(=O)CCC(=O)N2CCC(C)CC2)s1	0.2
Cn1c(CCc2ccccc2)nnc1SCC(=O)N1CCCC1	0.8
CSc1nc(N)c(C#N)c(-c2ccccc2Cl)c1C#N	0.7
COC(=O)c1ccccc1S(=O)(=O)N1Cc2cc([N+](=O)[O-])ccc2Oc2ccccc21	2.1
CCOC(=O)Cc1c(C)nc2c(-c3ccc(Cl)cc3)c[nH]n2c1=O	0.9
CCCOP(=O)(c1ccc(N(C)C)cc1)C(O)c1cccnc1 (stereo not drawn)	i
O=C1CN(C(=O)c2ccc(Br)o2)C(c2ccccc2)c2cc(F)ccc2N1 (stereo not drawn)	0.5
COc1ccc(NC(=O)Nc2ccc(N(C)C)cc2)cc1	0.6
O=C(O)C1CCC(=O)N1C1CCCC1 (stereo not drawn)	i
Cc1ccccc1NC1=C(Cl)C(=O)OC1OC(=O)c1ccco1 (stereo not drawn)	i
COCCOC(=O)C1=C(C)Nc2ncnn2C1c1ccc(F)cc1 (stereo not drawn)	1.6
CC1SC(c2ccccc2Cl)NC1=O (stereo not drawn)	i
CCOC(=O)C1=C(CSCc2ccccc2)NC(=O)NC1c1cc(C)ccc1C (stereo not drawn)	i
NC(=O)CSc1nnc(-c2ccc(S(=O)(=O)N3CCOCC3)cc2)n1CC1CCCO1 (stereo not drawn)	1.4
CCN=C1SC(CC(=O)Nc2sc3c(c2C#N)CCCC3)C(=O)N1CC (stereo not drawn)	i
COc1ccc(OC)c(NC(=O)CSc2ncccn2)c1	0.4
CCN(CC)CCN1C(=O)C(=O)/C(=C(/O)c2ccncc2)C1c1ccccc1 (stereo not drawn)	i
O=C(Nc1sc2c(c1C(=O)NCC1CCCO1)CCCC2)c1cccs1 (stereo not drawn)	i
C=CCn1c(SCCC(=O)O)nnc1-c1cccs1	i
CCOC(=O)N1CCN(C(=O)c2ccc(CS(=O)(=O)c3ccccc3OC)o2)CC1	0.8
Cc1cc(C(=O)CSc2nnc(N)s2)c(C)n1CCc1ccc(F)cc1	0.7
CCCc1c(O)c2ccccc2[nH]c1=O	0.2
Cn1c(Cn2nnc3ccccc32)nnc1SCC(N)=O	0.4
CCCc1cc(-c2n[nH]c(C(=O)OCC)c2-c2cscn2)c(O)cc1O	i
CC(=O)NC(CCS(C)(=O)=O)C(=O)Nc1cc(C)ccc1C (stereo not drawn)	i
COCCn1c(SCC(=O)c2ccc(Cl)cc2)nnc1C(C)C	i
CCC(C)(C)n1nnnc1C(c1cc2ccc(OC)cc2[nH]c1=O)N1CCN(C2CCCCC2)CC1 (stereo not drawn)	i
CCOc1ccc(CNc2ccc(N3CCCC3)cc2)cc1	2.6

Copied from the listing, 18 compounds:
SMILES	H5N1 antiviral
COCCOC(=O)C1=C(C)Nc2ncnn2C1c1ccc(F)cc1 (stereo not drawn)	1.6
CC1SC(c2ccccc2Cl)NC1=O (stereo not drawn)	i
CCOC(=O)C1=C(CSCc2ccccc2)NC(=O)NC1c1cc(C)ccc1C (stereo not drawn)	i
NC(=O)CSc1nnc(-c2ccc(S(=O)(=O)N3CCOCC3)cc2)n1CC1CCCO1 (stereo not drawn)	1.4
CCN=C1SC(CC(=O)Nc2sc3c(c2C#N)CCCC3)C(=O)N1CC (stereo not drawn)	i
COc1ccc(OC)c(NC(=O)CSc2ncccn2)c1	0.4
CCN(CC)CCN1C(=O)C(=O)/C(=C(/O)c2ccncc2)C1c1ccccc1 (stereo not drawn)	i
O=C(Nc1sc2c(c1C(=O)NCC1CCCO1)CCCC2)c1cccs1 (stereo not drawn)	i
C=CCn1c(SCCC(=O)O)nnc1-c1cccs1	i
CCOC(=O)N1CCN(C(=O)c2ccc(CS(=O)(=O)c3ccccc3OC)o2)CC1	0.8
Cc1cc(C(=O)CSc2nnc(N)s2)c(C)n1CCc1ccc(F)cc1	0.7
CCCc1c(O)c2ccccc2[nH]c1=O	0.2
Cn1c(Cn2nnc3ccccc32)nnc1SCC(N)=O	0.4
CCCc1cc(-c2n[nH]c(C(=O)OCC)c2-c2cscn2)c(O)cc1O	i
CC(=O)NC(CCS(C)(=O)=O)C(=O)Nc1cc(C)ccc1C (stereo not drawn)	i
COCCn1c(SCC(=O)c2ccc(Cl)cc2)nnc1C(C)C	i
CCC(C)(C)n1nnnc1C(c1cc2ccc(OC)cc2[nH]c1=O)N1CCN(C2CCCCC2)CC1 (stereo not drawn)	i
CCOc1ccc(CNc2ccc(N3CCCC3)cc2)cc1	2.6

Compound activity deposited in PubChem by SRMLSC.
